Screening results as filed in PubChem.
Biofilm kill mix: mixture kills Candida albicans biofilm cells | inhibition, % at 7.6 µM | C. albicans biofilm persisters + clotrimazole, fluorescence viability; primary screen in compound mixtures of four per well | actives 0.02% (n = 120,000);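 active = inhibition above 30.3% in the primary screen of four-compound pools, then above 30% when the compound was retested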;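 note: compounds exposed to preformed 24 h biofilms for 48 h; the number belongs to the whole pool; some results filed as inactive read as strong as hits; inactives centre near 12; 0% = biofilm with clotrimazole alone and 100% = kill control; retested singly at about 60 µM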
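Assay system: C. albicans biofilms / Medium: RPMI/MOPS medium, pH 7.0 / Schedule: biofilm formation 24 h, compound exposure 48 h, 37 °C / Measured by: Alamar Blue fluorescence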
The depositor's hits bear a star. An excerpt. The share of hits here may be higher or lower than overall.

SMILES	Biofilm kill mix
COc1ccc(S(=O)(=O)NCC2CCCN(C(=O)c3cccnc3C)C2)cc1 (centres undefined)	4
O/N=C1\CCSc2ccc(F)cc21	10
O=C(NC(=S)N1CCN(c2ccc([N+](=O)[O-])cc2)CC1)c1ccco1	6
O=C1CSC(=Nc2ccc(Cl)cc2)N1Cc1cccnc1	7
CCN(CC)CC(=O)Nc1c(C#N)cnn1-c1ccccc1	13
Cc1nnc(NC(=O)CSc2nnc(NC(=O)C(C)(C)C)s2)s1	7
Nc1nc(SCc2ccc(Cl)cc2)[nH]c(=O)c1-c1ccccc1	15
O=C(NCCN1C(=O)S/C(=C\c2ccccc2)C1=O)c1cc(S(=O)(=O)N2CCOCC2)c(Cl)cc1Cl	5
CC(C)(C)CC(=O)Nc1cc(S(=O)(=O)N2CCOCC2)ccc1N1CCCC1	16
C=C(C)CNC(=S)NN=C1c2ccccc2-c2ccccc21	18
O=C(Nc1cccc(-c2cn3ccccc3n2)c1)c1ccccc1	14
Cc1ccc([N+](=O)[O-])cc1NC(=O)CN(C1CCCCC1)S(=O)(=O)c1ccc(Cl)cc1	1
COC(=O)c1c(NC(=S)Nc2cc(OC)c(Cl)cc2OC)sc2c1CCCCC2	15
CN1CCN(c2nc3ccccn3c(=O)c2/C=C(\C#N)S(=O)(=O)c2ccc(Cl)cc2)CC1	11
Cc1ccc(C(=O)NCC(=O)NCC(=O)OCC(=O)c2ccc(Br)cc2)cc1	1
O=C(NCc1ccncc1)C(=O)NCC(c1ccco1)N1CCN(c2ccc(F)cc2)CC1 (centres undefined)	16
CC(=O)c1cccc(NC(=S)NNC(=O)c2ccco2)c1	4
O=C(NC(=S)Nc1cccc2c(O)cccc12)c1cccc(Br)c1	5
O=C(O)CC(CC(=O)Nc1ccc(F)c(Cl)c1)c1ccc(Cl)cc1Cl (centres undefined)	10
CC(C)c1cc(C(=O)N/N=C/c2cccnc2)n[nH]1	15
Cc1ccc(OCCCCNC2CCCC(C)C2C)c(C)c1 (centres undefined)	11
O=C(/C=C/c1ccccc1[N+](=O)[O-])NCCc1ccc(F)cc1	5
CCC1=C(OC(=O)N(CC)CC)N2C(=O)OC(=NCC(=O)OC)[C@]2(C)[C@H]2C1=CC[C@H]1C(=O)N(C)C(=O)[C@H]12	14
Cc1nn(-c2ccccc2)c(N)c1Sc1ccccc1[N+](=O)[O-]	8
CN(C)c1cccc(C(=O)NCc2ccccc2)c1	17
O=S(=O)(Nc1ccc2cn[nH]c2c1)c1ccccc1	12
O=[N+]([O-])c1ccc(Sc2n[nH]c(-c3ccco3)n2)nc1	30
CCOc1ccc(-c2c[n+]3c(n2-c2ccccc2)CCCCC3)cc1	26
CC(=O)c1cccc(NC(=O)C2C3C=CC(C3)C2C(=O)O)c1 (centres undefined)	24
CN1CCN(c2ccccc2NC(=O)c2sc3ccccc3c2Cl)CC1	15
CCN1C(=O)C(CC(=O)Nc2ccc(OC)cc2)N(CCc2ccc(F)cc2)C1=S (centres undefined)	-20
O=C(c1ccco1)N1CCCN(Cc2nc(-c3ccc4c(c3)OCO4)no2)CC1	12
COc1ccc(CCN(Cc2ccccn2)C(=S)Nc2ccccc2C)cc1OC	1
CCOc1ccc(N(CC(=O)NCCc2ccc(Cl)cc2)S(=O)(=O)c2c(C)[nH]c(=O)[nH]c2=O)cc1	15
O=C(CSc1cc(Cl)ccc1Cl)NC1CCCc2ccccc21 (centres undefined)	4
O=C1CN(c2nc(-c3cccnc3)nc3sc4c(c23)CCCC4)CCN1	-3
CC(Sc1nc2sc3c(c2c(=O)n1-c1ccccc1)CCCC3)C(=O)O (centres undefined)	16
Cc1ccc(CN=C(Nc2ccccc2)NC2CCCCC2)cc1	13
CC(=O)Nc1sc(N/N=C\c2ccccc2F)nc1-c1cccs1	10
O=C(COC(=O)Cc1c[nH]c2ccccc12)Nc1cccc2ccccc12	15
O=C(O)Cc1nc(-c2cccnc2)sc1-c1ccc(Br)cc1	18
CC1CCCN(C(=O)C2(NC(=O)Nc3cccc(F)c3)CCCCC2)C1 (centres undefined)	11
Cc1cccc(C(=O)N[C@H](C(=O)Nc2ccc(C)c(S(=O)(=O)N(C)C)c2)C(C)C)c1	22
c1csc(-c2cn3ccc4ccccc4c3n2)c1	1
CC(C)C(=O)Nc1ccc2oc(=O)ccc2c1	-8
COc1ccc(N2CCN(C(=O)CSc3nnc(-c4cccnc4)n3-c3ccc(F)cc3)CC2)cc1	7
CSc1ccccc1C(=O)Nc1ccc(C)cc1C	17
COc1ccc(C2=NN(CN3C(=O)C(=O)c4ccccc43)C(c3ccc(OC)cc3)C2)cc1 (centres undefined)	9
COc1ccccc1N1CCN(C2CCN(C(=O)COc3cccc(C)c3)CC2)CC1	-6
COCCN(CCOC)S(=O)(=O)c1ccc(C(=O)Nc2nc3c(s2)CCc2ccccc2-3)cc1	8
Cc1ccc(NC(=O)NC(=O)c2cnccc2C(F)(F)F)c(C)c1	17
Cc1ccc(NC(=O)c2cc3cc(OC(F)(F)F)ccc3[nH]2)cc1	8
CCOc1ccc(OCC)c(S(=O)(=O)N2CCOCC2)c1	19
CCCn1c(-c2ccc[nH]c2=O)nc2ccccc21	7
NC(CSCc1ccccc1Cl)C(=O)O (centres undefined)	3
O=C(Cc1nc2ccccc2[nH]c1=O)c1ccc(Cl)cc1	15
CCC(=O)Nc1nc(C)c(-c2csc(Nc3cccc(C(=O)O)c3)n2)s1	2
COc1ccccc1NC(=O)c1ccc(NC(=O)COC(=O)CCC2CCCC2)cc1	21
NC(=O)c1noc(C(=O)N(CC(=O)NC2CCCC2)Cc2ccc3c(c2)OCO3)c1N	8
COc1ccccc1NC(=O)c1ccc(NC(=O)COC(=O)CC(NC(=O)c2ccccc2Cl)c2ccccc2)cc1 (centres undefined)	24
The listing continues.
SMILES	Biofilm kill mix
O=C(NCc1ccccc1)C1CCC1	10
Cc1ccc2nc(SCC(=O)c3c(N)n(C)c(=O)n(C)c3=O)[nH]c2c1	18
O=C(Cc1ccccc1)Oc1coc(CSc2ncccn2)cc1=O	15
NNc1nc(-c2ccccc2)c2cc(Cl)ccc2n1	22
NC(=O)C(=O)N/N=C/c1c(F)c(F)c(F)c(F)c1F	3
COc1ccccc1N1CCN(C(=O)C2CCCCN2S(=O)(=O)c2ccc(C)cc2)CC1 (centres undefined)	24
O=C1CN(Cc2nc3cc(Cl)ccc3c(=O)[nH]2)CCN1	2
CCOC(=O)c1c(NC(=O)C2C3C=CC(CC3)C2C(=O)O)sc(C)c1CC (centres undefined)	5
C=CCOCCN(CC)CC	16
O=[N+]([O-])c1cc(Cl)cc2c1nc(NCCO)c1ccccc12	22
CCOc1cc(/C=N/NC(=O)c2ccc(-c3csc(Nc4ccc(C)cc4)n3)cc2)ccc1OCC(=O)O	19
COc1ccc(N(C(=O)c2ccncc2)S(=O)(=O)c2ccc3c4c(cccc24)C(=O)N3C)cc1	13

22 compounds from above, ordered by formula weight, ascending:
SMILES	Biofilm kill mix
C=CCOCCN(CC)CC	16
O=C(NCc1ccccc1)C1CCC1	10
NC(CSCc1ccccc1Cl)C(=O)O (centres undefined)	3
CCCn1c(-c2ccc[nH]c2=O)nc2ccccc21	7
NNc1nc(-c2ccccc2)c2cc(Cl)ccc2n1	22
NC(=O)C(=O)N/N=C/c1c(F)c(F)c(F)c(F)c1F	3
O=C1CN(Cc2nc3cc(Cl)ccc3c(=O)[nH]2)CCN1	2
O=C(Cc1nc2ccccc2[nH]c1=O)c1ccc(Cl)cc1	15
CCOc1ccc(OCC)c(S(=O)(=O)N2CCOCC2)c1	19
O=[N+]([O-])c1cc(Cl)cc2c1nc(NCCO)c1ccccc12	22
Cc1ccc(NC(=O)c2cc3cc(OC(F)(F)F)ccc3[nH]2)cc1	8
Cc1ccc(NC(=O)NC(=O)c2cnccc2C(F)(F)F)c(C)c1	17
Cc1ccc2nc(SCC(=O)c3c(N)n(C)c(=O)n(C)c3=O)[nH]c2c1	18
CCC(=O)Nc1nc(C)c(-c2csc(Nc3cccc(C(=O)O)c3)n2)s1	2
COc1ccccc1NC(=O)c1ccc(NC(=O)COC(=O)CCC2CCCC2)cc1	21
NC(=O)c1noc(C(=O)N(CC(=O)NC2CCCC2)Cc2ccc3c(c2)OCO3)c1N	8
COc1ccc(C2=NN(CN3C(=O)C(=O)c4ccccc43)C(c3ccc(OC)cc3)C2)cc1 (centres undefined)	9
COc1ccccc1N1CCN(C(=O)C2CCCCN2S(=O)(=O)c2ccc(C)cc2)CC1 (centres undefined)	24
COc1ccc(N(C(=O)c2ccncc2)S(=O)(=O)c2ccc3c4c(cccc24)C(=O)N3C)cc1	13
COCCN(CCOC)S(=O)(=O)c1ccc(C(=O)Nc2nc3c(s2)CCc2ccccc2-3)cc1	8
CCOc1cc(/C=N/NC(=O)c2ccc(-c3csc(Nc4ccc(C)cc4)n3)cc2)ccc1OCC(=O)O	19
COc1ccccc1NC(=O)c1ccc(NC(=O)COC(=O)CC(NC(=O)c2ccccc2Cl)c2ccccc2)cc1 (centres undefined)	24

Next section:
SMILES	Biofilm kill mix
CC(C)C(=O)Nc1ccc(C(=O)NNC(=S)NC(=O)c2ccccc2[N+](=O)[O-])cc1	14
COc1ccc(-c2n[nH]c(=S)n2-c2cc(OC)ccc2OC)cc1	10
C/C(=C\c1ccccc1)CN1CCC(C(=O)N2CCCC(C)C2)CC1 (centres undefined)	11
O=[N+]([O-])c1ccc(C[n+]2ccc(Cc3ccccc3)cc2)cc1	23
O=C(COc1cc(Cl)c(Cl)cc1Cl)Nc1cccc(O)c1	14
COc1ccc(/C=C(/NC(=O)c2cccs2)C(=O)N2CCOCC2)cc1OC	20
Cc1nc2ccc(NC(=S)N3CCOCC3)cc2nc1C	17
Cc1c(/C=N\NC(=O)c2ccc([N+](=O)[O-])cc2)cnn1C	4
O=C(CSc1nc2ccccc2c(=O)n1-c1ccc(Cl)cc1)N/N=C/C=C/c1ccccc1[N+](=O)[O-]	24
COC(=O)c1ccc2nc(NC(=O)COC(=O)CSc3nc(C)cc(C)n3)sc2c1	16
CCc1ccc(/C=C2/Sc3ccccc3N(CC(=O)NCCCOC)C2=O)cc1	16
C=CCc1cc(C)cc(C)c1OCCn1cncn1	13
c1ccc2c3c([nH]c2c1)C(C1CCCCC1)N(Cc1ncc[nH]1)CC3 (centres undefined)	1
O=C1C(Oc2ccccc2)C(c2ccc3c(c2)OCO3)N1CCc1ccc(F)cc1 (centres undefined)	23
Cc1c(NC(=S)NC(=O)C(C)(C)C)c(=O)n(-c2ccccc2)n1C	11
O=C(Cn1nc(-c2ccccc2Cl)ccc1=O)Nc1ccc(Br)cc1	19
COCCn1c(N)c(Sc2ccccc2[N+](=O)[O-])c(=O)[nH]c1=O	24
CC(=O)Nc1ccc(NC(=S)Nc2ccc(Br)cc2)cc1	17
O=C(COC(=O)c1cc2c(s1)CCC2)Nc1ccc(F)cc1	14
COc1ccc(NC(=S)N2CCC(N(C)CC3CCCO3)CC2)cc1Cl (centres undefined)	21
CCOC(=O)COc1nc(-c2ccc(Cl)cc2)cc(-c2ccco2)c1C#N	3
COc1ccc(CCN2C(=O)c3ccccc3C2(O)c2ncc[nH]2)cc1OC (centres undefined)	2
Cc1ccc(NC(=O)COC(=O)c2ccc([N+](=O)[O-])o2)cc1S(=O)(=O)N1CCCCCC1	0
S=C(N/N=C/c1ccc(Cl)c(Cl)c1)Nc1ccccc1Cl	14

Overlap with the part before: 2 compounds; new compounds follow.
SMILES	Biofilm kill mix
Cc1ccc(NC(=O)COC(=O)c2ccc([N+](=O)[O-])o2)cc1S(=O)(=O)N1CCCCCC1	0
S=C(N/N=C/c1ccc(Cl)c(Cl)c1)Nc1ccccc1Cl	14
Cc1ccn2cc(CCNC(=O)CC3CCCCC3)nc2c1	11
CSc1ncccc1C(=O)NC(C)C1CC2CCC1C2 (centres undefined)	16
c1ccc(CCNc2ncnc3sccc23)nc1	4
Cc1cc(C)cc(NC(=S)Nc2cccc3cnccc23)c1	18
O=C(Nc1c(Cl)cc(Cl)cc1C(=O)NCCN1CCOCC1)c1ccc(Cl)cc1Cl	8
Cc1ccc(S(=O)(=O)/N=C2/NC(=O)/C(=C/c3ccncc3)S2)cc1	7
CSc1ccc(/C=N/NC(=O)c2sccc2C)cc1	10
CC(C(=O)Nc1ccc2c(c1)OCCO2)n1nnc(-c2ccccc2)n1 (centres undefined)	19
CC1=CC(=C(C#N)C#N)C=C(C)N1CCN1CCN(C(=O)Nc2ccc(Cl)c(Cl)c2)CC1	6
O=C(CN(CC1CCCO1)C(=O)CNS(=O)(=O)c1ccc(Cl)cc1)NCC1CCCO1 (centres undefined)	16
Cc1cc(C(=O)CSc2nc(N)cc(=O)[nH]2)c(C)n1-c1cccc(F)c1	17
O=C(O)c1cccc(Cn2c(Cl)c(/C=N/Nc3ccccc3)sc2=O)c1	11
COc1ccccc1N(C)S(=O)(=O)c1ccc(Cl)c(C(=O)N2CCC(C(N)=O)CC2)c1	12
CC(C)CC(=O)Nc1ccccc1N1CCN(c2ccc(F)cc2)CC1	34
CC(C)NC(=O)NNc1c(Cl)cncc1Cl	13
O=C(O)C1CC(c2ccccc2)=Nc2ccccc2S1 (centres undefined)	6
COc1cc(NC(=O)COC(=O)CNC(=O)c2ccc(C)s2)cc(OC)c1	3
N#C/C(=C\c1cccs1)C(=O)N1CCOCC1	18
Cc1ccc(S(=O)(=O)N2CCCCC2)cc1NC(=O)COc1ccccc1F	8
Cc1ccc(NC(=O)CCNC(=O)c2ccc([N+](=O)[O-])cc2)cc1S(=O)(=O)N(C)C	15
O=C1C2C3C=CC(C3)C2C(=O)N1CCCCCCN1C(=O)C2C3C=CC(C3)C2C1=O (centres undefined)	11
OCCC1CN(Cc2cnc(N3CCOCC3)s2)CCN1C1CCCC1 (centres undefined)	10
CCOC(=O)Cc1csc(NC(=O)CSc2nncn2C)n1	20
Cc1cccc(-c2nc3ccccc3c(=O)n2NC(=O)Cc2ccc(Cl)cc2)c1	12
O=C(NNc1cc(Cl)cc(Cl)c1)c1c(F)cccc1Cl	24
COCCn1c(=NC(=O)c2cc(Cl)sc2Cl)sc2cc(S(N)(=O)=O)ccc21	12
CS(=O)(=O)NNC(=O)CN1C(=O)C2C3C=CC(C3)C2C1=O (centres undefined)	16
CC(C)NS(=O)(=O)c1ccc(OCC(=O)NCc2ccco2)cc1	17
CCN(CC)C1=NS(=O)(=O)c2cc([N+](=O)[O-])ccc21	13
